Screening results as filed in PubChem BioAssay.
Mtb H37Rv = M. tuberculosis H37Rv growth inhibitors, H37Rv strain (AID 1626); M. tuberculosis H37Rv growth inhibition; higher % means a stronger effect; inhibition, % at 10 µM; hits with a dose series show IC50 in µM; actives 0.95% (n = 220,000);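 active = confirmed in a dose series; inconclusive = inhibition above 80% but not taken into the dose series; inactive = below 80% or under 30% at every dose of the series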;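 also: bacteria incubated seven days before Alamar blue readout; 0% = bacteria only wells and 100% = bacteria with antibiotic wells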
Arbovirus inh = arbovirus infection inhibition; actives 0.37% (n = 200,000); arbovirus infection cell-based antiviral screen; inhibition, % at 10 µM;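 active = inhibition from about 30%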;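 also: bluetongue infection of BSR cells; cell survival read as ATP light after 72 h; 0% = infected wells without compound and 100% = uninfected wells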
Mtb bLac sens = beta-lactam sensitization of Mtb H37Rv. M. tuberculosis H37Rv growth with meropenem, percent inhibition; hits of this screen are not shown here. actives 0.27% (n = 330,000). inhibition, % at 25 µM;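 active = about 74% or more and at least 40 points above the plate without the antibiotic, then above 30% in a dose series; inconclusive = first-round hits that could not be retested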;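 also: growth measured after seven days incubation then overnight dye step; 0% = bacteria only wells and 100% = bacteria with antibiotic; twin plates without the antibiotic show which effects depend on it; some results filed as inactive read as strong as hits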
RecA splice inh = Mtb RecA intein splicing inhibition; actives 0.75% (n = 290,000); inhibition, %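 (about 9 µM by stock and volumes)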; cell-free RecA intein splicing, fluorescence; AID 2221; P9WHJ3; in the data active = inhibition above about 30%; inconclusive = no clear call, values can overlap the other calls;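 also: 0% = vehicle wells and 100% = reference inhibitor control wells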
Target sequence (P9WHJ3 whole entry, looked up, canonical isoform): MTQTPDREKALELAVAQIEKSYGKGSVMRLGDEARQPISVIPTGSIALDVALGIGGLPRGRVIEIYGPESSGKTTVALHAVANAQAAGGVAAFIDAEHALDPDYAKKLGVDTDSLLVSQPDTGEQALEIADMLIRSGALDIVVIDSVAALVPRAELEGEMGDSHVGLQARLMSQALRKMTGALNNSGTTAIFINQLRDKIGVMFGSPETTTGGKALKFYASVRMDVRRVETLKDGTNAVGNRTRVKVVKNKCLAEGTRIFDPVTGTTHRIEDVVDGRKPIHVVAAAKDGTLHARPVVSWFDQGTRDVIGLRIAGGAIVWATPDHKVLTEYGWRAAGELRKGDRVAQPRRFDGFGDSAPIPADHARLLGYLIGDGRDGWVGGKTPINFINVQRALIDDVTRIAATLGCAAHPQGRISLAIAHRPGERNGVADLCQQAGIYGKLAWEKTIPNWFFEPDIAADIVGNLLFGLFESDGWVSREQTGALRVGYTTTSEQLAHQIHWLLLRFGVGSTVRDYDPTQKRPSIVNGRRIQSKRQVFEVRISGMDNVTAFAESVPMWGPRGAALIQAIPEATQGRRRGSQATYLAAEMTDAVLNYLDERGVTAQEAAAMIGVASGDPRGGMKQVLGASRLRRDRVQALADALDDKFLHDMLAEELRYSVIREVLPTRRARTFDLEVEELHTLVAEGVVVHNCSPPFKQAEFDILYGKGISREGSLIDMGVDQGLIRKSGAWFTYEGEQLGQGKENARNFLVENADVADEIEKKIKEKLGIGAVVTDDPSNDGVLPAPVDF
YopH inh = inhibitors of Yersinia enterocolitica YopH tyrosine phosphatase; actives 0.16% (n = 140,000); inhibition, %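 (about 10 µM by stock and volumes)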; fluorescence Ex485/Em525;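 active = inhibition of 50% or more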;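 also: controls were vehicle for no effect and minimum signal wells for full effect; inactives centre near -20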
Arbovirus inh repeat = second read-out of Arbovirus inh, no call of its own (marks repeat the call); inhibition, %; measured here: 10K subset replicate screen; many hits read low in the repeat;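 first of two repeat runs on a subset; 0% = infected and 100% = uninfected wells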
Numbers without * were called inactive; ? = inconclusive; · = no result given.

SMILES | Mtb H37Rv | Arbovirus inh | Mtb bLac sens | RecA splice inh | YopH inh | others
CC(C)C(C)(C#N)NC(=O)CSc1nncn1-c1ccccc1 (stereo not drawn) | -5% | 2 | -5 | -1.4 | ·
O=S1(=O)CC(O)C(N2CCC(c3ccccc3)CC2)C1 (stereo not drawn) | 2% | 3 | 83 | 3.2 | -30
CCOc1ccccc1N/C=C(\C#N)c1nc2ccccc2n1C | -2% | -10 | 9 | 0.1 | 0
O=C(COC(=O)c1ccc(S(=O)(=O)NCc2ccco2)cc1)Nc1ccccc1OC(F)F | 1% | 6 | 3 | 0.0 | -22 | Arbovirus inh repeat=3
CNCCC(Oc1ccccc1OC)c1ccccc1 (stereo not drawn) | -7% | · | 4 | -0.8 | ·
Cc1cccc(NC(=O)c2sc3nc(N4CCOCC4)c4c(c3c2N)CCCC4)c1 | · | · | 11 | -1.5 | ·
CC1(C)C2CC[C@]3(C)C(CC=C4[C@@H]5C[C@@](C)(CO)[C@@H]6C[C@@]5(CC[C@]43C)C(=O)O6)[C@@]2(C)CC[C@@H]1O (stereo partly drawn) | 8% | · | -6 | 2.2 | ·
CCOc1ccc2c(c1)nc(SCC(=O)c1cccs1)n2C | · | -15 | 0 | 2.5 | 12
C=CCn1c(=O)c2ccccc2n2c(SCc3nnc(-c4ccccc4Br)o3)nnc12 | -6% | 2 | 2 | 1.3 | -6
O=C(NC(=S)Nc1ccc(S(=O)(=O)Nc2nccs2)cc1)c1ccccc1 | 7% | -9 | -1 | -0.7 | -6
O=C(COc1ccc(S(=O)(=O)NCc2ccccc2)cc1Cl)NCc1ccncc1 | · | · | 2 | -7.7 | ·
C/C(=N\Nc1cc(N2CCCCC2)nc(C)n1)c1ccc(Br)cc1 | · | · | 100 | 28 | ·
CCOCCCNC(=O)c1cn(CC)c2ccc(S(=O)(=O)N3CCOCC3)cc2c1=O | · | · | -11 | -1.4 | ·
CCc1cccc2c(-c3csc(=NC)n3C)c[nH]c12 | 14% | 3 | 0 | -1.6 | ·
CCOC(=O)Cn1cnc(-c2ccc([N+](=O)[O-])cc2)c1 | -3% | -2 | -4 | -5.9 | -30
NCCCC[C@H](N)c1nnc([C@H](CC(=O)O)NC(=O)C2CCNCC2)o1 | -11% | 6 | -7 | -0.3 | ·
CCCN(CCC)S(=O)(=O)c1ccc(NS(C)(=O)=O)cc1 | -10% | 7 | 0 | · | -20
COc1cc(CNC2CCCC2)cc(OC)c1OC | -2% | 1 | 9 | 0.5 | -38
O=C1c2ccccc2C(Nc2ccc(S(=O)(=O)N3CCOCC3)cc2)N1c1ccccn1 (stereo not drawn) | 2% | 5 | -5 | 1.3 | -37
Cn1cnc(S(=O)(=O)Nc2ccc(Cl)c(C(F)(F)F)c2)c1 | · | · | -4 | -1.2 | ·

An excerpt from the list above, as a working copy:
SMILES | Mtb H37Rv | Arbovirus inh | Mtb bLac sens | RecA splice inh | YopH inh | others
C/C(=N\Nc1cc(N2CCCCC2)nc(C)n1)c1ccc(Br)cc1 | · | · | 100 | 28 | ·
CCOCCCNC(=O)c1cn(CC)c2ccc(S(=O)(=O)N3CCOCC3)cc2c1=O | · | · | -11 | -1.4 | ·
CCc1cccc2c(-c3csc(=NC)n3C)c[nH]c12 | 14% | 3 | 0 | -1.6 | ·
CCOC(=O)Cn1cnc(-c2ccc([N+](=O)[O-])cc2)c1 | -3% | -2 | -4 | -5.9 | -30
NCCCC[C@H](N)c1nnc([C@H](CC(=O)O)NC(=O)C2CCNCC2)o1 | -11% | 6 | -7 | -0.3 | ·
CCCN(CCC)S(=O)(=O)c1ccc(NS(C)(=O)=O)cc1 | -10% | 7 | 0 | · | -20
COc1cc(CNC2CCCC2)cc(OC)c1OC | -2% | 1 | 9 | 0.5 | -38

Further results
SMILES | Mtb H37Rv | Arbovirus inh | Mtb bLac sens | RecA splice inh | YopH inh | others
CCOC(=O)NC(C)N1C(=O)C2C3C=CC(C3)C2C1=O (stereo not drawn) | -4% | 0 | -5 | 23 | ·
Cc1c(Cl)cccc1NC(=S)N1CCN(Cc2ccccc2)CC1 | · | 8 | -9 | -1.1 | -41
Cc1cc(N2C(=O)C3CCC(c4ccccc4)CC3C2=O)no1 (stereo not drawn) | 1% | 4 | 8 | -3.7 | ·
O=C(Nc1ccon1)c1cc2ccccc2oc1=O | 2% | 4 | 70 | -1.6 | -20
CN(C(=O)Nc1cnccc1C(F)(F)F)C1CCCCC1 | -4% | · | -6 | 1.9 | ·
CC(=O)N(C)c1ccc(NS(=O)(=O)Cc2ccccc2)cc1 | -9% | 0 | 7 | 3.9 | -55
CCCc1cc(=O)oc2cc(C)cc(OC(C)C(=O)NCc3ccccn3)c12 (stereo not drawn) | · | · | 4 | -1.6 | ·
Cc1c(O)c2c3c(cccc3c1O)C(=O)N(c1ccccc1)C2=O | 2% | 35* | -7 | -9.3 | -5
OCCCNc1c2ccccc2nc2ccccc12 | · | · | 12 | -12 | ·
Cc1ccnc(NC(=O)c2ccc(Cl)c(NC(=O)c3ccccc3C)c2)c1 | · | · | 6 | 2.9 | ·
CCOC(=O)c1cnc2ccc(OCC)cc2c1NCCN1CCOCC1 | -5% | -4 | 4 | 2.3 | ·
O=C1N=NC2=C1c1c3ccccc3c(O)n1CC2 | -9% | · | 4 | 56* | ·
CCc1nnc(NC(=O)CSc2nnc(Cc3cccn3C)n2C)s1 | 2% | 4 | -4 | -2.1 | -43 | Arbovirus inh repeat=1
Cc1nc(-c2ccccc2O)n(-c2ccccc2)n1 | 14% | 9 | 7 | -0.1 | -7
CCn1c(CSc2nnc(-c3ccncc3)n2C)nc2cc(C(=O)O)ccc21 | 2% | · | -6 | -3.3 | ·
CCc1ccccc1NC(=S)N(CCN(C)C)C(C)c1ccccn1 (stereo not drawn) | 2% | 6 | 2 | -3.7 | 1
N#CC(Sc1ccccn1)c1ccc(Cl)cc1Cl (stereo not drawn) | 4% | -11 | 2 | 0.4 | ·
COc1ccccc1/C=C/C(=O)Nc1ccc2c(c1)OCCO2 | 9% | 5 | 5 | 1.8 | -24
CCN(CC)S(=O)(=O)c1ccc(-c2cn3ccc(C)cc3n2)cc1 | · | · | 9 | -2.8 | ·
Cc1ccccc1N1C(=O)CSC1=C(C#N)C#N | -5% | -6 | -4 | 1.7 | ·
CCN(CC)S(=O)(=O)c1cccc(C(=O)NCC2CCCO2)c1 (stereo not drawn) | -1% | 1 | -6 | 3.1 | -16
COC(C[C@H](O)C[C@@H](O)[C@H](C)OCc1ccccc1)OC | -2% | · | · | -0.8 | ·
CC1(NC(=O)N2CCOCC2)CCS(=O)(=O)C1 (stereo not drawn) | -12% | 4 | -5 | -1.1 | -20
CCOC(=O)c1ccccc1Oc1c(F)c(F)nc(NCCO)c1F | -2% | 0 | 5 | · | -10
COCCNC(=O)NC1(C(F)(F)F)Oc2ccc(Cl)cc2O1 (stereo not drawn) | 4% | -8 | 96 | -6.6 | -31 | Arbovirus inh repeat=-2
COc1ccc(Cl)cc1S(=O)(=O)NCc1cccs1 | 5% | -1 | 1 | 1.7 | -23
NC(=O)Cn1nc([N+](=O)[O-])nc1Oc1ccccc1C(=O)N1CCOCC1 | 2% | 20 | -10 | -2.6 | ·
O=C(NC1CCSc2ccccc21)c1cccc([N+](=O)[O-])c1 (stereo not drawn) | · | · | 5 | 2.4 | ·
CCOC(=O)c1sc(NC(=O)c2cccnc2)c(C#N)c1C | 8% | 14 | -1 | -0.3 | -20
COc1ccc(S(=O)(=O)NC2CCCCC2)cc1C(=O)N1CCCCC1 | · | · | -5 | 1.0 | ·
CCOC(=O)c1c(P(=O)(N2CCOCC2)N2CCOCC2)noc1N | 3% | 5 | -7 | 0.2 | -30
O=C(c1ccccc1F)N1CCN(S(=O)(=O)c2ccc(S(=O)(=O)N3CCCCC3)cc2)CC1 | -6% | -20 | -7 | · | -22
COc1ccc(S(=O)(=O)Nc2cccc(-n3cnnn3)c2)cc1OC | · | · | 1 | -5.3 | ·
CCOc1ccc(C(=O)Nc2c3c(nn2-c2cccc(Cl)c2)CS(=O)C3)cc1 (stereo not drawn) | 3% | 3 | ? | 3.2 | 2
COc1ccc(OCC(=O)N2CCN(Cc3ccc4c(c3)OCO4)CC2)cc1 | -1% | -4 | -10 | -1.7 | ·
O=C(NCCN1CCOCC1)C1CCC(CNS(=O)(=O)c2ccc(Cl)cc2)CC1 (stereo not drawn) | -10% | 6 | -1 | -0.8 | -4
CSc1nsc(/C=C/Nc2ccc(Cl)cc2)c1C#N | 2% | 6 | 64 | 15 | 56*
COC(=O)CCC(=O)OC1(C)C(=O)C=C2C=C(C3CC3)N(C3CC3)C=C2C1=O (stereo not drawn) | -5% | · | -4 | 17 | ·
C=CCNC(=S)Nc1sc2c(c1C(=O)OCC)CC(C(C)C)OC2 (stereo not drawn) | 4% | -15 | 5 | -0.1 | -43
O=C1CC(C(=O)Nc2ncccn2)C(c2ccccc2)O1 (stereo not drawn) | -4% | 5 | -2 | 1.3 | -25
CCOC(=O)Cc1csc(NC(=O)COc2ccccc2OC)n1 | 3% | 7 | 1 | 1.4 | -35
O=c1[nH]c(=O)n(Cc2ccco2)c2c1C(C(F)(F)F)(C(F)(F)F)N=C(c1ccco1)N2 | 3% | -8 | -13 | · | -28
O=C(c1ccccc1)C(CN1CCCC1)c1ccccc1 (stereo not drawn) | ? | -38 | 100 | 2.3 | -26
Cc1ccc(-c2noc(C3CCCN(S(=O)(=O)c4ccc5ccccc5c4)C3)n2)o1 (stereo not drawn) | -18% | 15 | -5 | 3.6 | -2
O=C1c2ccccc2C(=O)N1CCOc1ccc(F)cc1 | · | · | -2 | -1.1 | ·
COc1ccc2cc(C(=O)C3CCCN(Cc4cnc(C)s4)C3)ccc2c1 (stereo not drawn) | 14µM* | -15 | 32 | -1.8 | ·
Cc1cc(=O)oc2cc(NC(=S)NNC(=O)c3c(Cl)cnn3C)ccc12 | · | · | -6 | -6.2 | ·
c1ccc(CNc2nc(-c3ccccc3)nc3ccccc23)cc1 | · | · | 86 | 17 | ·
CN(C)/C=C(\C#N)C(=O)c1cccc(Oc2ccc(Br)cc2)c1 | -3% | 18 | 0 | -5.1 | -33
CN(CC(=O)Nc1ccccc1Cl)C(=O)CCc1nc2ccccc2c(=O)[nH]1 | · | · | -2 | -2.2 | ·

More records
SMILES | Mtb H37Rv | Arbovirus inh | Mtb bLac sens | RecA splice inh | YopH inh | others
COCC(=O)Nc1cc(C)cn(Cc2c(F)cccc2Cl)c1=O | · | · | -8 | 3.3 | ·
COc1ccc([N+](=O)[O-])cc1NC(=O)C1C2C=CC(C2)C1C(=O)O (stereo not drawn) | · | · | 8 | 1.5 | ·
COc1ccc(CN2CCN(C(=O)COc3cccc(C)c3)CC2)c(OC)c1 | 3% | 3 | · | 2.0 | -18
Cn1cc(/C=C2\SC(=S)N(N3CCOCC3)C2=O)c2ccccc21 | -6% | · | -8 | -4.6 | ·
CCOc1ccc(CCNS(=O)(=O)c2cnc[nH]2)cc1OCC | -8% | 0 | 0 | 0.1 | -40
Cc1c(CC(=O)NCC(=O)NCC(=O)O)c(=O)oc2c(C)c3oc4c(c3cc12)CCCC4 | · | · | 0 | -5.8 | ·
CCOC(=O)c1c(NC(=O)CSc2nnc(-c3cccnc3)o2)sc(C)c1C | -10% | 2 | -16 | 2.4 | -2
CN(C)S(=O)(=O)c1cccc(C(=O)NCCc2ccccc2)c1 | 0% | 7 | -11 | 1.8 | -40
Cc1nc(-c2noc(-c3ccc(Cl)cc3)n2)c(C(F)(F)F)o1 | -2% | · | 2 | 1.0 | ·
CCN(CC)c1cc(C)c2cc(NC(=O)c3cccs3)ccc2n1 | -2% | 0 | -8 | -0.6 | ·
O=S(=O)(Nc1cccnc1Cl)c1ccc(-c2ccccc2)cc1 | · | · | 4 | -1.4 | ·
Cc1cc(-c2c(C)[nH]n(-c3ccc(Cl)cc3)c2=O)n[nH]1 | 65% | -11 | 40 | -11 | -40
CN(Cc1ccccc1)C(=O)C(=O)c1cn(CC(=O)N2CCCC2)c2ccccc12 | · | · | -5 | -2.5 | ·
CCN(c1nc(N)c(C(=O)N=C(N)N)nc1Cl)C(C)C | -2% | · | 4 | -0.1 | ·
O=C(NC(=S)Nc1ccc(F)c([N+](=O)[O-])c1)c1ccccc1F | -1% | 14 | 7 | 5.5 | ·
C=CCNC(=O)CSc1nnc(-c2cccs2)o1 | 14% | -2 | 53 | 1.5 | -36
O=C(Cn1cnc2ccccc2c1=O)NCC(=O)N1CCOCC1 | -4% | 7 | 3 | -0.8 | ·

Some of the compounds tested; rates above refer to the full screens.
